Vaccinia inh – blocks a specific stage of Vaccinia orthopoxvirus infection | Vaccinia-infected cells, mCherry/Venus stage reporter fluorescence; stronger effect = lower value; some inactives read as strong as hits | activity change (mCherry), % (concentration not given with the values) | 89,000 compounds, 0.01% hits | AID 1053133;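 active means mCherry past -33% and 40 or more points under the early reporter, replicates agreeing; inconclusive means past -33% without that gap or agreement; tested in A549 cells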;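 further: scaled between vehicle wells and reference inhibitor wells; 23 nL library stock went into each well; one replicate is shown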
Vaccinia inh Venus – second read-out of Vaccinia inh, no call of its own (marks repeat the call); activity change (Venus), %; measured here: Venus reporter, other viral stage;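 negative = less Venus signal; first of two replicates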
* hit, by the source's call; ? = inconclusive; . = not tested or not shown. This is a subset; the hit share may differ from the screen's.

SMILES	Vaccinia inh	Vaccinia inh Venus
CCCN(C)C[C@H]1Oc2cc(-c3ccncc3)ccc2S(=O)(=O)N([C@H](C)CO)C[C@H]1C	10.9	8.0
C[C@H]1CN([C@@H](C)CO)C(=O)c2cc(NC(=O)C3CCCCC3)ccc2O[C@H]1CN(C)S(C)(=O)=O	13.9	5.8
CCC(=O)N1CC2(C1)CN(C(=O)CC)[C@H](CO)c1[nH]c3cc(OC)ccc3c12	23.6	17.8
CC(=O)N(C)C[C@H]1Oc2cc(C3=CCCC3)ccc2S(=O)(=O)N([C@H](C)CO)C[C@@H]1C	-0.8	-6.8
C[C@H](CO)N1C[C@H](C)[C@H](CN(C)Cc2ccc(Oc3ccccc3)cc2)Oc2c(NC(=O)C3CCCCC3)cccc2C1=O	-1.8	-2.1
O=C(C1CC1)N1CC(=O)N2[C@H](C1)[C@H](c1ccc(C#Cc3cccc(F)c3)cc1)[C@@H]2CO	?	.
C[C@@H]1CCCCO[C@@H](CN(C)Cc2ccc3c(c2)OCO3)[C@H](C)CN([C@H](C)CO)C(=O)c2cc(NC(=O)c3ccncc3)ccc2O1	4.2	-2.9
C[C@@H]1CCCCO[C@H](CN(C)C(=O)c2ccccc2)[C@@H](C)CN([C@H](C)CO)C(=O)c2cc(NC(=O)Nc3ccccc3)ccc2O1	6.4	1.6
CO[C@@H]1CN(C)C(=O)c2cc(NC(C)=O)ccc2OC[C@H](C)N(Cc2cccc(F)c2)C[C@H]1C	7.3	4.6
C[C@@H]1CN([C@@H](C)CO)C(=O)c2cccc(NC(=O)c3ccncc3)c2O[C@H]1CN(C)Cc1ccc2c(c1)OCO2	3.6	4.2
C[C@H]1CN([C@@H](C)CO)C(=O)c2cc(C3=CCCC3)cnc2O[C@@H]1CN(C)C(=O)C1CCOCC1	20.7	19.7
CC(C)CC#Cc1ccc2c(c1)O[C@H](CN(C)Cc1ccccc1F)[C@@H](C)CN([C@@H](C)CO)S2(=O)=O	?	.
C[C@@H]1CCCCO[C@@H](CN(C)C(=O)Nc2ccc(C(F)(F)F)cc2)[C@H](C)CN([C@H](C)CO)C(=O)c2cc(NS(=O)(=O)c3ccccc3)ccc2O1	-23.1	-18.7
COc1ccc(S(=O)(=O)N(C)C[C@H]2Oc3ccc(N(C)C)cc3CC(=O)N([C@@H](C)CO)C[C@@H]2C)cc1	14.9	29.2
CN(C)CC#Cc1ccc([C@@H]2[C@@H](CO)N3CCCCN(C(=O)CN(C)C)C[C@@H]23)cc1	31.8	6.9
N#Cc1ccc(-c2ccc(C3[C@H]4CNC[C@@H]3N4S(=O)(=O)c3ccc(-c4ccccc4)cc3)cc2)cc1 (stereo partly drawn)	20.2	21.9
CO[C@@H]1CN(C)C(=O)c2cc(NC(=O)c3ccccc3)ccc2OC[C@H](C)N(C(=O)CN(C)C)C[C@H]1C	4.6	0.8
CC(C)NC(=O)N(C)C[C@@H]1Oc2ccc(N(C)C)cc2CC(=O)N([C@@H](C)CO)C[C@@H]1C	11.8	2.9
CO[C@@H]1CN(C)C(=O)c2cc(NC(=O)NC(C)C)ccc2OC[C@H](C)N(Cc2ccccc2)C[C@H]1C	-14.4	-11.6
O=C(NCC[C@@H]1CC[C@H](NC(=O)C2CCC2)[C@H](CO)O1)Nc1ccc(Cl)cc1	4.0	3.2
C[C@@H]1CN([C@@H](C)CO)C(=O)c2cc(NC(=O)CCCN(C)C)ccc2O[C@@H](C)CCCCO[C@H]1CN(C)Cc1ccccc1	3.2	9.5
O=S(=O)(c1ccc(F)cc1)N1CCCCN2[C@@H](CO)[C@H](c3ccc(-c4cncnc4)cc3)[C@@H]2C1	-14.0	-16.5
O=C(C1CCCCC1)N1[C@H](CO)[C@@H]2c3ccccc3N(S(=O)(=O)c3ccccc3)C[C@@H]21	11.0	7.9
C[C@@H]1CN([C@H](C)CO)C(=O)c2cccc(NC(=O)c3ccncc3)c2O[C@@H]1CN(C)Cc1ccc(C(F)(F)F)cc1	-0.5	3.8
CN1CCN(C(=O)C[C@H]2CC[C@H]3[C@@H](COC[C@H](O)CN3Cc3cccc(Cl)c3)O2)CC1	5.9	-0.1
COCC(=O)N1CC(=O)N2[C@H](CO)[C@H](c3ccc(C#Cc4cccc(OC)c4)cc3)[C@@H]2C1	7.9	0.1
CCS(=O)(=O)N1CC2(CN(Cc3cccc(Cl)c3)[C@@H](CO)c3c2c2ccc(OC)cc2n3C)C1	-5.8	-9.6
COc1ccc(NC(=O)N(C)C[C@H]2Oc3ccc(NC(=O)Nc4c(C)noc4C)cc3CC(=O)N([C@H](C)CO)C[C@@H]2C)cc1	9.2	7.0
O=C(Cc1ccncc1)Nc1ccc2c(c1)[C@@H]1C[C@H](CC(=O)NC3CCCC3)O[C@H](CO)[C@@H]1O2	7.0	5.3
O=S(=O)(c1ccccc1)N1CCCCN2[C@H](CO)[C@@H](c3ccc(C#CC4CCCC4)cc3)[C@@H]2C1	15.2	4.6
COc1ccc(OC(=O)N(C)C[C@H]2OCc3cnnn3CCCC(=O)N([C@@H](C)CO)C[C@H]2C)cc1	12.6	12.9
COc1ccc(NC(=O)N[C@H]2CC[C@@H](CCNC(=O)CN3CCOCC3)O[C@@H]2CO)cc1	2.6	9.6
O=C(C1CC1)N1CCCCN2[C@H](CO)[C@H](c3ccc(C#CC4CC4)cc3)[C@@H]2C1	-0.6	3.7
C[C@H]1CN([C@@H](C)CO)C(=O)Cc2cc(NS(=O)(=O)c3ccc(F)cc3)ccc2O[C@@H]1CN(C)S(C)(=O)=O	-9.6	-0.2
Cc1ccc(-c2ccc3c(c2)O[C@@H](CN(C)Cc2ccccc2)[C@@H](C)CN([C@@H](C)CO)S3(=O)=O)cc1	?	.
C[C@H](CO)N1C[C@H](C)[C@@H](CN(C)C(=O)Nc2ccccc2)Oc2c(NS(=O)(=O)c3ccccc3)cccc2C1=O	19.6	18.3
CCCN(C)C[C@H]1OCCCC[C@@H](C)Oc2ccc(NC(=O)NC(C)C)cc2C(=O)N([C@H](C)CO)C[C@@H]1C	30.0	5.0
C[C@H](CO)N1C[C@H](C)[C@H](CN(C)C(=O)Cc2ccccc2)OCCCC[C@H](C)Oc2ccc(NC(=O)Nc3ccc(F)cc3)cc2C1=O	-5.1	1.2
O=C(C[C@@H]1C=C[C@H](NC(=O)c2cccnc2)[C@H](CO)O1)NCc1ccc(Cl)c(Cl)c1	-2.4	-2.6
COc1ccc2c3c(n(C)c2c1)[C@H](CO)N(C(=O)CC1CC1)CC31CN(C(=O)C2CCC2)C1	13.8	10.4
COC(=O)[C@H]1[C@H](CO)[C@H]2Cn3c(ccc(-c4cccc(F)c4)c3=O)[C@H]2N1S(C)(=O)=O	12.4	2.2
C[C@H]1CN([C@@H](C)CO)C(=O)Cc2cc(NC(=O)Cc3cn(C)c4ccccc34)ccc2O[C@H]1CN(C)CC1CC1	-6.0	-4.8
C[C@H]1CCCCO[C@@H](CN(C)C(=O)NC2CCCCC2)[C@@H](C)CN([C@@H](C)CO)C(=O)c2cc(NC(=O)Nc3cccc4ccccc34)ccc2O1	17.1	4.2
COc1ccc(NC(=O)Nc2ccc3c(c2)CC(=O)N([C@H](C)CO)C[C@@H](C)[C@@H](CN(C)C(=O)Nc2ccc(OC)cc2)O3)cc1	-7.8	5.6
Cc1ccc(S(=O)(=O)Nc2ccc3c(c2)C(=O)N([C@H](C)CO)C[C@H](C)[C@H](CN(C)S(=O)(=O)c2c(C)noc2C)OCCCC[C@H](C)O3)cc1	?	.
COc1cccc(-c2ccc3c(c2)[C@@H]2[C@@H](CCN2C(=O)c2ccccn2)[C@@H](CO)N3)c1	-21.5	-31.0
COc1ccc2c3c(n(C)c2c1)[C@@H](CO)N(C(=O)Nc1c(C)noc1C)CC31CCN(CC2CC2)CC1	15.0	3.7
CCNC(=O)C[C@@H]1C=C[C@H](NC(=O)C2CC2)[C@H](CO)O1	-0.4	-0.6
Cc1ccc(S(=O)(=O)N(C)C[C@H]2Oc3ccc(NC(=O)Cc4cn(C)c5ccccc45)cc3CC(=O)N([C@@H](C)CO)C[C@@H]2C)cc1	-0.4	4.7
COc1cccc(-c2ccc3c(c2)O[C@H](CN(C)C)[C@H](C)CN([C@@H](C)CO)S3(=O)=O)c1	-3.8	2.7
C[C@@H]1CN([C@H](C)CO)C(=O)Cc2cc(NC(=O)CCC(F)(F)F)ccc2O[C@H]1CN(C)Cc1ccc(-c2ccccc2)cc1	-25.4	-28.8
CCN(C[C@H]1[C@H](c2ccccc2)[C@H](CO)N1C(C)=O)C(=O)NC(C)C	8.9	6.4
C[C@@H]1CN([C@@H](C)CO)C(=O)Cc2cc(NC(=O)CCCCCC(=O)Nc3ccccc3N)ccc2O[C@H]1CN(C)Cc1ccc(-c2ccccc2)cc1	-11.6	-2.9
O=C(C[C@@H]1C[C@@H]2c3cc(NC(=O)Nc4ccccc4F)ccc3O[C@@H]2[C@H](CO)O1)NCc1ccncc1	-1.9	6.7
O=C(N[C@@H]1C=C[C@@H](CC(=O)N2CCOCC2)O[C@@H]1CO)c1cccc(F)c1	5.7	0.3
COc1ccc(NC(=O)Nc2cccc3c2O[C@@H](CN(C)CC2CC2)[C@H](C)CN([C@@H](C)CO)C3=O)cc1	-9.4	-10.6
C[C@H](CO)N1C[C@H](C)[C@@H](CN(C)C(=O)Nc2ccc(F)cc2)Oc2ccc(NC(=O)CCC(F)(F)F)cc2C1=O	7.1	5.7
COc1ccc(CNC(=O)C[C@H]2CC[C@@H](NS(=O)(=O)c3cccc(OC)c3)[C@H](CO)O2)cc1	23.7	12.1
C[C@H](CO)N1C[C@H](C)[C@H](CN(C)C(=O)c2ccccc2)Oc2ncc(Br)cc2C1=O	8.8	26.2
COc1ccc(CN(C)C[C@H]2OCCCC[C@@H](C)Oc3ccc(NC(=O)c4ccncc4)cc3C(=O)N([C@@H](C)CO)C[C@@H]2C)cc1	-27.3	-18.9
Other entries
SMILES	Vaccinia inh	Vaccinia inh Venus
CN(C)C(=O)c1ccc(-c2cccc(-c3nc(C(=O)N(C)C)cc4c3[C@@H](CCO)N([S@](=O)C(C)(C)C)C4)c2)cc1	12.0	23.3
Cc1ccc(S(=O)(=O)Nc2ccc3c(c2)C(=O)N([C@@H](C)CO)C[C@H](C)[C@H](CN(C)C(=O)CCC(F)(F)F)OCCCC[C@H](C)O3)cc1	-22.7	-22.1
CO[C@H]1CN(C)C(=O)c2cc(NC(C)=O)ccc2OC[C@@H](C)N(C(=O)c2ccccn2)C[C@H]1C	15.0	16.6
C[C@@H]1CCCCO[C@H](CN(C)S(=O)(=O)c2ccc(Cl)cc2)[C@@H](C)CN([C@@H](C)CO)C(=O)c2cc(NS(=O)(=O)c3ccc(F)cc3)ccc2O1	-2.6	4.8
COc1ccc(NC(=O)N(C)C[C@@H]2OCCCC[C@@H](C)Oc3ccc(NS(=O)(=O)c4cccs4)cc3C(=O)N([C@H](C)CO)C[C@@H]2C)cc1	11.2	-2.4
Cc1ccc(S(=O)(=O)N(C)C[C@H]2Oc3ccc(NC(=O)C4CC4)cc3C(=O)N([C@H](C)CO)C[C@@H]2C)cc1	-7.5	2.5
C[C@H]1CN([C@@H](C)CO)C(=O)Cc2cc(NC(=O)C3CC3)ccc2O[C@H]1CN(C)Cc1ccc(C(F)(F)F)cc1	-17.3	-29.9
CCCc1cn(CC[C@@H]2CC[C@@H](NC(=O)C3CCCC3)[C@H](CO)O2)nn1	-3.7	8.2
CC(=O)N(C)C[C@@H]1Oc2cc(/C=C/c3ccccc3)ccc2S(=O)(=O)N([C@@H](C)CO)C[C@H]1C	-20.4	-31.7
CC(C)C#Cc1ccc2c(c1)O[C@@H](CN(C)C(=O)Cc1ccccn1)[C@H](C)CN([C@@H](C)CO)S2(=O)=O	-6.5	-12.8
COc1ccc(NC(=O)N(C)C[C@H]2OCCCC[C@@H](C)Oc3ccc(NC(=O)Nc4ccccc4)cc3C(=O)N([C@H](C)CO)C[C@H]2C)cc1	-7.8	12.2
CCC(=O)Nc1ccc2c(c1)C(=O)N(C)C[C@@H](OC)[C@H](C)CN(C(=O)COC)[C@H](C)CO2	30.1	14.7
C/C=C/c1ccc([C@H]2[C@@H](CO)N(C(C)=O)[C@H]2CNC(=O)CC2CC2)cc1	-0.4	-0.4
CN1c2ccc(C3=CCCCC3)cc2[C@@H]2[C@@H](CCN2S(=O)(=O)c2ccccc2F)[C@H]1CO	11.0	9.3
O=C(C[C@@H]1CC[C@@H]2[C@H](COC[C@H](O)CN2Cc2ccncc2)O1)NCc1ccncc1	20.9	9.7

2 records picked at random from the list so far:
SMILES	Vaccinia inh	Vaccinia inh Venus
C[C@H]1CN([C@@H](C)CO)C(=O)Cc2cc(NC(=O)C3CC3)ccc2O[C@H]1CN(C)Cc1ccc(C(F)(F)F)cc1	-17.3	-29.9
Cc1ccc(S(=O)(=O)Nc2ccc3c(c2)C(=O)N([C@@H](C)CO)C[C@H](C)[C@H](CN(C)C(=O)CCC(F)(F)F)OCCCC[C@H](C)O3)cc1	-22.7	-22.1

Whole records from above:
`C/C=C/c1ccc([C@H]2[C@@H](CO)N(C(C)=O)[C@H]2CNC(=O)CC2CC2)cc1` is listed with Vaccinia inh = -0.4; Vaccinia inh Venus = -0.4
`CN(C)C(=O)c1ccc(-c2cccc(-c3nc(C(=O)N(C)C)cc4c3[C@@H](CCO)N([S@](=O)C(C)(C)C)C4)c2)cc1` is listed with Vaccinia inh = 12.0; Vaccinia inh Venus = 23.3

Entries above that contain two or more sulfur atoms, in the order listed:
SMILES	Vaccinia inh	Vaccinia inh Venus
C[C@H]1CN([C@@H](C)CO)C(=O)Cc2cc(NS(=O)(=O)c3ccc(F)cc3)ccc2O[C@@H]1CN(C)S(C)(=O)=O	-9.6	-0.2
Cc1ccc(S(=O)(=O)Nc2ccc3c(c2)C(=O)N([C@H](C)CO)C[C@H](C)[C@H](CN(C)S(=O)(=O)c2c(C)noc2C)OCCCC[C@H](C)O3)cc1	?	.
C[C@@H]1CCCCO[C@H](CN(C)S(=O)(=O)c2ccc(Cl)cc2)[C@@H](C)CN([C@@H](C)CO)C(=O)c2cc(NS(=O)(=O)c3ccc(F)cc3)ccc2O1	-2.6	4.8
COc1ccc(NC(=O)N(C)C[C@@H]2OCCCC[C@@H](C)Oc3ccc(NS(=O)(=O)c4cccs4)cc3C(=O)N([C@H](C)CO)C[C@@H]2C)cc1	11.2	-2.4

Source: PubChem BioAssay (Broad Institute)
